# From PubChem BioAssay
# HNF4A DNA FP = change in binding of human HNF4A to DNA, primary screen, biochemical, fluorescence polarization, FITC-DNA | activity change, % at 10 µM | Hepatocyte nuclear factor 4-alpha (Homo sapiens), P41235 | 0.3% of 360,000 active | 1 h; in the data active means activity change above about 30%, passing the limit was not always enough;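 further: controls were the assay level and a saturating level of protein; the project sought stronger binding though the title names inhibitors; some compounds called inactive have numbers as strong as hits; positive values seem to mean higher polarization but the record does not say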
# Calb FLC = C. albicans growth inhibition with fluconazole, primary screen, CaCi-2 strain, Alamar Blue fluorescence | C. albicans CaCi-2 (fluconazole-resistant clinical isolate) + fluconazole, 48 h | growth inhibition, % (test concentration not listed) | 0.57% of 300,000 active;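 active means most replicates above 75%; inconclusive means exactly half above 75%; inactive means most below 75%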;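 further: all wells also contain fluconazole at 8 µg/ml as a sub-toxic cotreatment; 0% = median of DMSO wells and 100% = median of geldanamycin control wells; wells of about 8 µL received 7.5 nL stock; the first replicate is given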
# ALR H2O2 inh = inhibitors of human ALR sulfhydryl oxidase, primary screen, biochemical, H2O2 detection, HRP-luminol luminescence, single point | purified ALR, DTT oxidation | inhibition, % (no concentration beside the values) | 3.8% of 290,000 active | AID 485317, 2010;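 active means mean and each replicate at 75% or more; inconclusive means only one of the two met; inactive means neither met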;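 further: stock transfer was 7.5 nL into about 7.5 µL; 0% = neutral wells and 100% = wells with inactivated enzyme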
# RanGTP-Imp inh = inhibitors of RanGTP-importin-beta interaction, primary screen, biochemical, FRET, CFP-Ran, YFP-importin-beta, homogeneous. 1.1% of 300,000 active. cell-free CFP-Ran/YFP-importin-beta FRET ratio. inhibition, % (test concentration not listed). Ran GTPase (GTP-bound) - importin-beta complex;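 active means most replicates above 15%; inconclusive means exactly half above 15%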;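 further: 0% = DMSO wells and 100% = Ran loaded with GDP instead of GTP; wells of about 40 µL received 100 nL stock; the first replicate is given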
# LANA-H2A inh = blockers of LANA interaction with H2A/H2B – biochemical, FP readout, HTS, primary screen. cell-free LANA-H2A/H2B peptide, fluorescence polarization. Protein LANA1 (Human herpesvirus 8 type P (isolate GK18)), Q9QR71. inhibition, % (test concentration not listed). 0.6% of 320,000 active; in the data active means inhibition mostly above about 10%, no sharp cut-off; inactive means mostly below about 6.7%;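 further: stock transfer was 7.5 nL into about 10 µL; 0% = median of vehicle wells and 100% = median of positive control wells; one replicate is shown; the record names a cut of 25% in any replicate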
# Target sequence (Q9QR71 whole entry, looked up): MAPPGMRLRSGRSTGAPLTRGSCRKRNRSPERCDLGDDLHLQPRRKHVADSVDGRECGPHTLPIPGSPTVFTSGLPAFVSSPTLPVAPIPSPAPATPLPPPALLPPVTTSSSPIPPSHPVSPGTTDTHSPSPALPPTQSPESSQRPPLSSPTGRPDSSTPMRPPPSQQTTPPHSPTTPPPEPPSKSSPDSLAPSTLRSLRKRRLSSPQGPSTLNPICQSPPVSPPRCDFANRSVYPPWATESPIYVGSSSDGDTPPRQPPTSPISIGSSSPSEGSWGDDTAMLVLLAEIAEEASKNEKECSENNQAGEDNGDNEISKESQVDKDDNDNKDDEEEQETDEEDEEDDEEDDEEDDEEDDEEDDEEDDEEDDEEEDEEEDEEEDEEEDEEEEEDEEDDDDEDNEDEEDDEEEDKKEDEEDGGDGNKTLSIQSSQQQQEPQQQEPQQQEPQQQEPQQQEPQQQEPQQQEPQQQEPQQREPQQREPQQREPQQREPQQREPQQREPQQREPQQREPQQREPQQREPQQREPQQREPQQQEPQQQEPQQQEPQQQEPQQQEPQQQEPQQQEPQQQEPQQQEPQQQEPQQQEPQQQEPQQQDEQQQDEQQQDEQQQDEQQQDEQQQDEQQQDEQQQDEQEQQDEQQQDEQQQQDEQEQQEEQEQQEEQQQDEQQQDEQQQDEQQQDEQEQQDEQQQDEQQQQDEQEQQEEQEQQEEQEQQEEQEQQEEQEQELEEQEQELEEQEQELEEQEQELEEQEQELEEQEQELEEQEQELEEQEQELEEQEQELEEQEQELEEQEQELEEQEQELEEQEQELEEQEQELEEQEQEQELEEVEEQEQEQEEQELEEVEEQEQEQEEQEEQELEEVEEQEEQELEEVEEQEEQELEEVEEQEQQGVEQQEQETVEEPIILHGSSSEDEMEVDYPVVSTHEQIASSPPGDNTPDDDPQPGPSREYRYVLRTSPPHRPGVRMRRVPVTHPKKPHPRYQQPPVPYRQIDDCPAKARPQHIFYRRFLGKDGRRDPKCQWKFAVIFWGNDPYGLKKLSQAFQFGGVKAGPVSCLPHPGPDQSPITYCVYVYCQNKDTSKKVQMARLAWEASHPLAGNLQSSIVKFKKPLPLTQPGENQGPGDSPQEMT
# Vif A3G = inhibitors of Vif binding to APOBEC3G peptide, primary screen, biochemical, TR-FRET, GST-Vif 1-94, biotin-A3G peptide, dose response retest (AID 1117319); one-dose inhibition, %; IC50 in µM for titrated hits; 0.57% of 260,000 active; Virion infectivity factor (Human immunodeficiency virus type 1 group M subtype B (isolate …; TR-FRET GST-Vif / biotin-A3G peptide binding; higher % means a stronger effect; test concentration not given here; strong numbers were not always called active;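 active means above the screen mean plus three standard deviations and confirmed in dose response; inconclusive means results disagree or hit not tested in dose response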;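 further: Vif residues 1-94 fused to GST binding biotinylated APOBEC3G peptide 110-148; 0% = full assay without inhibitor and 100% = GST in place of GST-Vif; retest series ran down from 100 µM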
# Beta2AR agonist = beta2AR agonists driving receptor internalization, primary screen, cell-based, FAP fluorogen, flow cytometry. Beta-2 adrenergic receptor (Homo sapiens), P07550. 0.43% of 340,000 active. Am2.2-beta2AR cells; reference of the scale not given here. response, % (concentration not given with the values);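 active means response above a set limit, near 3 SD of response in nonfluorescent compounds, cut at about 42% in these data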;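 further: stock transfer was 100 nL into about 11 µL; a reference agonist was the positive control; negative values mostly stem from fluorescent compounds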
# Numbers without * were called inactive; i = inactive; ? = inconclusive; . = not tested or not shown.
mol	HNF4A DNA FP	Calb FLC	ALR H2O2 inh	RanGTP-Imp inh	LANA-H2A inh	Vif A3G	Beta2AR agonist
CS(=O)(=O)N(CC(=O)Nc1ccccc1C(=O)N1CCOCC1)c1ccc(F)c(Cl)c1	-3.5	-12	-4	-2.7	-1.8	.	6
O=[N+]([O-])c1c(NCc2ccco2)ncnc1NCc1ccco1	-4.1	.	.	.	.	5%	1
CC1(C)Cc2c(C#N)c(NCCc3ccccc3)nc(-c3ccco3)c2CO1	5.0	1	1	4.3	-5.3	15%	5
NS(=O)(=O)c1cccc(NC(=O)Cn2cc(C(F)(F)F)cc(Cl)c2=O)c1	3.7	-9	-3	1.8	2.5	-7%	-11
CC1=CC(C)(C)NC(=S)N1c1cccc2cc(S(=O)(=O)O)ccc12	-14	3	-48	2.8	0.3	28%	-9
CC(C)[C@@H](C(=O)N1CCN(C(=O)OC(C)(C)C)CC1)n1cc(CCO)nn1	1.1	-4	-2	1.1	-0.9	.	3
COc1ccc(-c2coc3cc(O)c(OC)cc3c2=O)cc1	2.1	.	0	.	0.4	.	-7
Cc1cccc(-n2ncc3c2CCCC3NC(=O)CC(F)(F)F)c1C (configuration not stated)	-0.1	5	.	6.6	0.9	.	-8
Cc1ccc(-c2ncccc2OC(=O)C23CC4CC(CC(C4)C2)C3)cc1	-4.5	-9	60	1.7	-3.4	-2%	4
COc1cc(CC(=O)OCC(=O)NCc2cccs2)cc(OC)c1OC	4.0	.	0	.	3.1	.	2
CC(C)(C)NC(=O)CN(Cc1ccc2c(c1)OCO2)C(=O)CNS(=O)(=O)c1ccc(F)cc1	2.0	-6	-4	1.8	-2.2	.	-34
Cc1ccnc(NCc2cc(C)ccc2O)c1	-3.4	-6	.	?	1.4	6%	3
O=C(NCc1ccccc1)C(=O)Nc1nc(-c2ccccc2)cs1	-2.8	4	-5	3.2	-1.0	4%	1
Cc1csc(NC(=O)Cc2ccc(Cl)cc2)n1	-0.1	0	-20	3.6	4.3	.	-4
Cc1ccc(-c2nnn(CC(=O)Nc3cccc4cccnc34)n2)o1	4.5	.	0	.	1.7	7%	10
O=C(Nc1nnc(-c2ccccc2)o1)Nc1ccccc1Cl	1.6	-4	-8	-3.0	6.1	1%	17
CC1=NOC(=O)/C1=C\c1ccc(-c2ccc(Cl)c(C(=O)O)c2)o1	-24	-11	.	3.1	.	15%	10
O=C(CSc1nccc2ccccc12)N1CCN(c2ccccn2)CC1	-1.4	-3	98*	-3.0	7.7	19%	-12
COc1cc(OC)c(NC(=O)CCc2ccccc2)cc1Cl	0.5	-11	-34	-3.8	2.5	-1%	-23
Cc1ccc(OC(=O)c2cc(C)nn2C(C)(C)C)cc1	-3.7	-2	-2	-1.9	-1.7	-14%	-1
O=C(CCl)c1ccc2[nH]c(=O)oc2c1	0.8	7	.	2.3	-0.3	28%	-11
Cc1ccccc1OC(C)C(=O)NCCC1=CCCCC1 (configuration not stated)	-1.0	-11	-1	3.1	2.7	.	1
CC(C)CC(NC(=O)c1ccc(Cl)cc1Cl)C(=O)O (configuration not stated)	-0.5	0	-16	0.0	3.1	4%	6
CCOC(=O)/C(C#N)=C/c1cccc(C)c1	4.0	-1	-9	-0.7	4.4	-10%	-7
O=c1cc(CN2CCN(S(=O)(=O)c3ccc4ccccc4c3)CC2)nc2sccn12	-0.2	-1	-6	5.3	2.3	?	-10
CN(C)c1oc(/C=C/c2ccccc2)nc1C#N	-3.3	-5	14	11	-4.5	.	19
COc1ccc(OC)c(S(=O)(=O)N(C)CC(=O)N2CCN(c3ccccc3F)CC2)c1	-0.6	-7	-1	0.8	3.9	20%	-3
COc1ccc(NCc2ccc([N+](=O)[O-])s2)cc1	2.5	-5	99*	-3.0	6.0	-8%	2
Cc1onc(C(=O)Nc2cccnc2Cl)c1[N+](=O)[O-]	2.3	24	-3	?	4.4	-2%	0
O=C(CN1CCC(NC(=O)c2ccccc2Cl)CC1)NCc1ccco1	3.4	9	5	4.0	-7.0	.	-2
COc1cc(NC(=O)c2c(-c3ccccc3Cl)noc2C)c2ncccc2c1	2.6	6	-8	3.7	-1.6	.	-12
COc1ccc(Nc2nc3c([nH]2)c(=O)[nH]c(=O)n3C)cc1	-6.1	3	74	1.5	-7.2	12%	14
CC(OC(=O)CNC(=O)c1sc2ccccc2c1Cl)c1ccccc1 (configuration not stated)	-0.1	.	-3	.	12	-4%	4
CC(=O)Nc1ccc(C(=O)Nc2ccc3c(c2)OCCO3)cc1	3.3	-5	-22	-0.5	-0.4	-8%	-2
CCCn1nnc(NC(=O)/C=C/c2ccc(C(C)C)cc2)n1	0.3	-1	-3	-1.7	-1.5	3%	13
COc1ccc(CCNC(=O)c2cnc(C)cn2)cc1	5.2	5	-21	0.0	-1.3	.	5
CCNC(=O)CC1C(=O)N(c2ccc(F)cc2)C(=O)N1CCC(C)C (configuration not stated)	-3.0	3	-3	-4.3	4.3	-2%	-3
O=C(NC(=S)NCCOCc1ccc(Cl)cc1)c1cccnc1	-0.1	-3	9	-1.7	-4.4	-10%	-28
[O-]c1n[n+](-c2ccc(Cl)cc2)cc2ccccc12	-5.3	-23	72	?	-7.0	23%	-3
COc1ccc(CCNCC(O)COc2ccc(OC)cc2C(C)(C)C)cc1 (configuration not stated)	-2.8	37	.	4.3	2.9	.	45*
Cc1ccc(-c2cc(C(=O)Nc3ccccn3)c3ccccc3n2)o1	-19	7	3	0.0	4.1	?	5
O=C(O)CCC(=O)Nc1ccc(C(=O)OCC(=O)c2ccc(Cl)cc2)cc1	-0.5	-3	-4	-1.5	3.8	1%	8
COc1ccccc1OCCCN1C(=O)C(=O)c2cccc(C)c21	-1.1	-1	0	4.8	0.4	14%	10
COc1ccc(CN2C(=O)C(CC(C)C)Nc3ncnc(N4CCCCC4)c32)cc1 (configuration not stated)	2.0	-4	4	6.4	-6.5	.	-3
Cc1ccc(NC2CCCN(C(=O)c3ccccc3-c3ncc[nH]3)C2)cc1C (configuration not stated)	3.1	-1	99*	-1.2	3.6	-7%	2
COc1ccc(OC)c(NC(=O)c2cccc(Cn3cc(Br)c([N+](=O)[O-])n3)c2)c1	-2.5	6	3	-4.5	-4.6	-3%	-1
CC1(C)CC(=O)C2=C(C1)OC(N)=C(C#N)C21CCN(Cc2ccccc2)CC1	1.2	3	-4	-3.1	1.5	-2%	-42
C=CCOC(=O)CCP(=O)(CCC(=O)OCC=C)c1ccccc1	2.6	10	-2	.	-5.6	31%	-8
CC1O[C@@H](O[C@H](C)CC[C@@H](C)O)C(O)C[C@H]1O (some centres not stated)	1.5	5	-1	?	-8.8	.	0
COc1cccc(OCc2cc(C(=O)N3CCC(C(O)C(C)C)CC3)no2)c1 (configuration not stated)	-1.4	-17	-14	2.9	-2.2	-5%	12

# (next part)
mol	HNF4A DNA FP	Calb FLC	ALR H2O2 inh	RanGTP-Imp inh	LANA-H2A inh	Vif A3G	Beta2AR agonist
Cc1ccc2[nH]c(-c3ccccc3)cc(=O)c2c1	3.0	3	21	1.0	1.0	24%	11
Cc1nc(N2CCOCC2)[nH]c(=O)c1CCC(C)C	1.1	-4	3	1.2	0.5	1%	2
CCNc1c(NS(=O)(=O)c2ccc(OC)cc2)c(=O)oc2ccccc12	1.4	-6	-10	-4.8	0.2	.	-18
O=C(CN1C(=O)COc2ccc(S(=O)(=O)N3CCCCC3)cc21)NCc1ccccc1Cl	0.0	2	0	1.1	-2.2	.	-5
COc1ccc(-n2c(SCCC#N)nnc2-c2cc(Cl)ccc2OC)cc1Cl	23	20	-8	0.9	-5.6	-135%	-2
COC(=O)[C@]1(Cc2ccccc2)N[C@H](CN(C)S(=O)(=O)c2ccc(C(F)(F)F)cc2)[C@@H]2C(=O)N(Cc3ccccc3)C(=O)[C@@H]21	1.0	.	0	.	i	-6%	13
COc1ccc(OC)c2sc(NC(=O)c3ccc(Br)s3)nc12	7.6	9	9	-2.0	-8.1	7%	6
CCOc1cc(Br)c(Br)c(C=Nc2ccc(NC(C)=O)cc2)c1O	-25	2	-18	-6.9	-5.3	.	4
CC(C)(C)n1nnnc1C(c1ccccc1F)N(Cc1ccco1)CC1CCCO1 (configuration not stated)	3.1	9	1	6.2	-3.3	-2%	5
COc1cc(CN2CCC(CCC(=O)NC3CC3)CC2)cc(Cl)c1OC	3.7	-3	.	-0.1	-1.9	.	-7

# Quoted from the listing:
# Under RanGTP-Imp inh, NS(=O)(=O)c1cccc(NC(=O)Cn2cc(C(F)(F)F)cc(Cl)c2=O)c1 reads 1.8
# Under ALR H2O2 inh, Cc1ccc(-c2cc(C(=O)Nc3ccccn3)c3ccccc3n2)o1 reads 3

# Other results:
mol	HNF4A DNA FP	Calb FLC	ALR H2O2 inh	RanGTP-Imp inh	LANA-H2A inh	Vif A3G	Beta2AR agonist
COc1ccc(N(CC(=O)NCCSCc2ccc(C)cc2)S(=O)(=O)c2ccccc2)cc1	0.6	-3	-4	3.4	-2.2	-4%	7
COC(=O)c1ccc(CNC(=O)c2c3c(nc4ccccc24)CCN(Cc2ccccc2)C3)cc1	0.6	-7	2	1.6	7.4	-12%	-1
COc1ccc(S(=O)(=O)N2CCCC2CNC(=O)C(=O)NCc2ccc3c(c2)OCO3)cc1 (configuration not stated)	-7.0	3	.	2.8	-0.9	-10%	-8
Cc1ccc(NC(=O)CN2CCOCC2)cc1Cl	1.4	-9	.	-1.7	-6.2	-4%	-1
CCN(CC)CCNC(=O)CS(=O)Cc1nc(-c2ccc(Cl)cc2)oc1C (configuration not stated)	-0.9	1	99*	4.0	-2.6	28%	-3
O=C(NCCN1CCOCC1)c1ccc(F)cc1	-3.0	-2	-7	5.2	2.2	-4%	-6
CCc1nc(C)cc2c1sc1ccccc12	0.7	9	-14	3.6	2.7	0%	-6
C/C(=C\C(=O)c1ccc(C)cc1)Nc1cccc(O)c1	-1.2	-2	36	2.0	-3.4	53µM*	-4
O=C(CCN1C(=O)CSc2ccccc21)Nc1cccc(C(F)(F)F)c1	0.2	.	-1	.	.	-22%	0
COc1ccc(C(=O)Nc2ccc(C)cn2)c(OC)c1	4.0	?	55	-2.8	-1.8	-3%	-29
Cc1[nH]n(-c2cccc(Cl)c2)c(=O)c1-c1ccc(Cl)cc1	0.6	5	33	-0.7	4.0	4%	4
COc1cccc(N=Nc2c(=O)[nH]n3c(C)cc(C)nc23)c1	4.5	15	-2	-3.0	5.4	.	1
COc1ccc(N(C(C)C(=O)N/N=C/c2cc(Br)c(C)o2)S(C)(=O)=O)cc1 (configuration not stated)	2.8	21	.	4.7	-1.3	21%	-2
COc1ccc(S(=O)(=O)N2CC(=O)Nc3ccccc32)cc1	-1.5	2	-3	-0.3	-2.4	5%	9
CCOc1ccc(NC(=O)CN(C)Cc2cc(=O)n3c(-c4ccccc4)csc3n2)cc1OCC	9.8	-11	-49	?	2.8	4%	-10
Cc1ccnc(NS(=O)(=O)c2ccc(N3C(=O)C4CCCCC4C3=O)cc2)n1 (configuration not stated)	-0.8	-3	.	4.7	7.2	.	1
CC(C)NC(=O)c1cc(-c2cccs2)nc2ccccc12	-4.0	-32	-18	2.2	3.9	-5%	0
Cn1cc(-c2cccc(C(F)(F)F)c2)cc(C#N)c1=O	1.7	-6	-8	7.0	-1.1	-6%	-10
